GLA inh pH 4.5: blocks human alpha-galactosidase A at pH 4.5; P06280; purified enzyme, 4-MU-alpha-Gal fluorescence, pH 4.5; activity change, negative = inhibition, % at 105 µM; 230,000 tested, under 10 active; inconclusive = small, poorly fitted or top-dose-only inhibition, or a rising curve; inactive = flat fitted curve, though single readings scatter; no compound was filed as active;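 also: 0% = full activity with enzyme and -100% = basal without enzyme; dose as in the result columns while the protocol names 77 µM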
Rango-impB inh: Rango-importin beta binding inhibition; Q14974; Rango CFP/YFP FRET sensor + importin beta, 45 min; Potency, µM (highest dose often 92.2 µM), for the others: at the top dose inhibition of complex formation; AID 540263; actives 0.031% (n = 340,000); active = rising FRET ratio curve, often small or poorly fitted; inconclusive = mostly compound fluorescence or quenching in the first reads; inactive = flat curves in all reads;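 also: potency is read from the fitted curve at half-maximal effect; 0% = DMSO wells and 100% = buffer wells lacking importin beta; nearly all actives have a fitted effect of over 15% in size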
Target sequence (Q14974 whole entry, looked up): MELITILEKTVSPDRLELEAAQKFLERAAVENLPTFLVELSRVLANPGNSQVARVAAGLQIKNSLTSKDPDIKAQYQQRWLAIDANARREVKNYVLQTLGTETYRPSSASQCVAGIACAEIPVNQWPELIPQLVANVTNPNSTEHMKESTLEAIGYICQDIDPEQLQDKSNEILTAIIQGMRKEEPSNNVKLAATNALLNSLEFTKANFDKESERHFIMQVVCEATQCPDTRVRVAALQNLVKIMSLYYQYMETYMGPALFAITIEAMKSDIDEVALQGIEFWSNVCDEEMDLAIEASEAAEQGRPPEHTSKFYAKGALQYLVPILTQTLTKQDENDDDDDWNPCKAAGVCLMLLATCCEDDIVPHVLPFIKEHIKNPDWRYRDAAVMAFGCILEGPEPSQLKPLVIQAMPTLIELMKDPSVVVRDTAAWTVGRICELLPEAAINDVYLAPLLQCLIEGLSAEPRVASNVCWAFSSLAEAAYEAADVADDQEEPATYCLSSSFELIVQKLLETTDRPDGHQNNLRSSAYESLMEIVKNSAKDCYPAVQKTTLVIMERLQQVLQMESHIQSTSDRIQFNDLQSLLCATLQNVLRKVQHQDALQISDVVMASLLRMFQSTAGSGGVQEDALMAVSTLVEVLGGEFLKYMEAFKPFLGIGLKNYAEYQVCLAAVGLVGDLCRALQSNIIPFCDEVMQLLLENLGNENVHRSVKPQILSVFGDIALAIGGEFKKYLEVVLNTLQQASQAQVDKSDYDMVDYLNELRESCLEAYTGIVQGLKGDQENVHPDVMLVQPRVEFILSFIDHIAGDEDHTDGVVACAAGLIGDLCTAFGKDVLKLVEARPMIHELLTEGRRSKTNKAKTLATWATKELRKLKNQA
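Inhibition scored from the CFP 486 nm/YFP 530 nm FRET ratio 45 min after adding 0.125 microM importin beta to 50 nM Rango biosensor preincubated 5 min with compound (room temperature, PBS with DTT, Tween-20, BSA). No-importin wells as positive control.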
miR-21 FLuc: miR-21 reporter, rising signal | HeLa miR-21 FLuc reporter, luciferase, 48 h | Potency, µM (top dose mostly 38.3 µM), for the others: at the highest dose reporter change, positive = more light | 340,000 tested, under 10 active; active = well fitted rising curve with a large enough effect; inconclusive = small, poorly fitted or top-dose-only effect; inactive = no such curve, though single readings can be large or run the other way;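 also: % of control where 0% means no effect; miR-21 action dims this reporter so a rising signal means less miR-21 action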
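HeLa miR-21-FLuc reporter line, endogenous miR-21; 2000 cells/well in DMEM/10% FBS; compound titration up to ~40uM final, 48 h, 37 degree Celsius; luciferase detection reagent, 15 min lysis, CCD luminescence.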
Rango release inh: prevents RanGTP from dissociating the Rango-importin beta complex | O95149+P62826 | Biochemical FRET Rango-importin beta, RanGTP-induced dissociation | Potency, µM (series often up to 46.1 µM), inactives show top-dose activity change, negative = inhibition | actives 0.071% (n = 340,000) | AID 540253; active means falling FRET ratio curve, often poorly fitted, with flat reads before Ran was added; inconclusive means other falling curves, or compound fluorescence or quenching; inactive means flat or rising ratio curve;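 also: potency is read from the fitted curve at half-maximal effect; % of control where 0% means no effect; nearly all actives have a fitted effect of over 45% in size; -100% = wells without RanGTP and RCC1; the record marks most hits as doubtful in a second field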
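Two FRET readings bracket the reaction: one 5 min after compound meets Rango–importin beta, another 45 min after RanGTP-RCC1 (0.6 uM Ran, 0.2 uM RCC1, 2 mM GTP) is added. Only the second defines inhibition.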
* hit, by the source's call; ? = inconclusive; . = not tested or not shown; & = joins results of further samples. These rows are one share of the data, so the mix of outcomes need not match the whole.

no.	GLA inh pH 4.5	Rango-impB inh	miR-21 FLuc	compound	Rango release inh
1	.	-0.8%	.	COc1ccccc1OCCNC(=O)c1cccc(S(=O)(=O)N2CCN(Cc3ccccc3)CC2)c1	-3%
2	.	-2.6%	-9%	CCOc1cc(C(=O)NCc2ccc3c(c2)OCO3)cc(OCC)c1OCC	?
3	8	-1.1%	5%	CCOc1ccc(NC(=O)CN2CCN(S(=O)(=O)c3ccc(Cl)cc3)CC2)cc1	2%
4	2	-0.4%	0%	COCCNC(=O)c1cn(C)c(=O)c2cc(OC)c(OC)cc12	-7%
5	4&6&1&1	-2.4%	3%	Cc1cc(C(C)(C)C)cc(C)c1CC1=NCCN1	9%
6	3	1.7%	-1%	CCOC(=O)c1[nH]cnc1C(=O)O	12%
7	13	?	19%	CC1CN(S(=O)(=O)c2cccc(C(=O)OCc3cc(=O)oc4cc(O)ccc34)c2)CC(C)O1 (stereo not drawn)	?
8	-20	-1.9%	-4%	CCOC(=O)C1CCN(C(=O)c2ccccc2NC(C)=O)CC1	-6%
9	7	-0.1%	-4%	Cc1ccc(-c2csc3ncnc(-n4nc(C)cc4N)c23)cc1	-10%
10	-1	-6.7%	-1%	CC(C)(C)C(=O)CC1(O)C(=O)N(Cc2ccc(Cl)cc2)c2ccccc21 (stereo not drawn)	-17%
11	.	0.3%	.	CN(C(=O)COC(=O)c1cc2ccccc2cc1O)c1c(N)n(Cc2ccccc2)c(=O)[nH]c1=O	-3%
12	-2	-3.0%	-51%	CC1C/C(=N/NC(=O)c2cccs2)CC(C)(C)C1 (stereo not drawn)	-14%
13	-2	-3.1%	7%	OCC1(CCOc2ccccc2)CCN(CC2=Cc3cc(Cl)ccc3OC2)CC1	-9%
14	6	1.2%	-3%	COc1cccc(-c2nc(-c3ccccc3)[nH]c(=O)c2C#N)c1	-1%
15	4	12%	-14%	O=[N+]([O-])c1cc2c(c(CSc3nnnn3-c3ccc(O)cc3)c1)OCOC2	1%
16	.	0.4%	-1%	O=C(NCCn1c(C(F)(F)F)nc2cc(C(F)(F)F)ccc21)[C@H]1CCCN1c1nc(CN2CCCCC2)cs1	-4%
17	3	-2.8%	-17%	O=C(CSc1nc2cc3c(cc2c(=O)n1CCC1=CCCCC1)OCO3)NCc1ccco1	-9%
18	0	2.3%	-45%	c1ccc(N2CCN(c3nc4cc5c(cc4s3)OCCO5)CC2)cc1	-5%
19	-16	-3.3%	-1%	O=C(NC1CC1)c1cc(Cl)ccc1[N+](=O)[O-]	0%
20	.	2.6%	15%	CSc1ccc(CN(C)C(=O)CNC(=O)CNS(=O)(=O)c2ccc(C)c(C)c2)cc1	12%
21	.	2.6%	.	CCOC(=O)n1cnc2nc(N)nc(SC)c21	13%
22	-1	-0.2%	0%	Cc1c(C(=O)OC(C)C)nnn1-c1nonc1N	-9%
23	-8	-0.9%	1%	C/C(=N/NC(=O)CN1CCN(Cc2ccccc2)CC1)c1ccc([N+](=O)[O-])cc1	-6%
24	1	1.7%	-8%	NC(=O)N/N=C/c1ccccc1OCC(=O)NCc1ccccc1	-5%
25	-25	0.0%	-31%	COc1ccc(C(=O)Nc2cc3c(oc2=O)CCCC3=O)cc1	-11%
26	.	0.8%	25%	CC(C)C(=O)N1CCN(c2ccccc2NC(=O)c2cccc3ccccc23)CC1	2%
27	-4	-0.4%	-1%	CCOc1ccc(N2CC(C(=O)Nc3ccc(OC)c(S(=O)(=O)N4CCCCC4)c3)CC2=O)cc1 (stereo not drawn)	-4%
28	.	-1.0%	.	COc1ccc(OCCOC(=O)C(C)NS(=O)(=O)c2ccc(NC(C)=O)cc2)cc1 (stereo not drawn)	-14%
29	.	-1.8%	.	Fc1ccc2cnc(C3=CCCCC3)cc2c1	1%
30	0	0.2%	22%	CCc1[nH]nc2c1C(c1ccc(Br)s1)C(C#N)=C(N)O2 (stereo not drawn)	13%

no.	GLA inh pH 4.5	Rango-impB inh	miR-21 FLuc	compound	Rango release inh
31	5	7.5%	-2%	COc1ccccc1NC(=O)c1ccc(S(=O)(=O)N2CCCC2)cc1	-13%
32	14	-2.6%	1%	Cc1ccccc1NCN1C(=O)C2CCC(C)(C1=O)C2(C)C (stereo not drawn)	-9%
33	.	-2.0%	6%	CCOCCCn1c(=S)[nH]c2cc(C(=O)N3CCN(c4ccccc4)CC3)ccc2c1=O	-6%
34	-15	3.0%	-5%	COc1cccc(OC)c1C(=O)Oc1ccc2c(c1)O/C(=C\c1ccncc1)C2=O	6%
35	3	0.9%	0%	COC(=O)c1c(C)[nH]c(C(C)=O)c1C	-8%
36	.	0.0%	.	COc1cccc(-c2sc3ccccc3c2-c2ccc(OCCN(C)C)cc2)c1	-4%
37	.	-2.1%	9%	CN(C(=S)Nc1ccc(F)cc1)C(c1ccccc1)c1ccccc1	1%
38	.	-1.4%	0%	Cc1ccccc1C(=O)N1CCC(C(=O)Nc2ccccc2Cl)CC1	-5%
39	6	0.9%	-31%	O=C(Oc1ccc(Cl)cc1)N1CCCCC1	10%
40	3	?	1%	COc1cccc(/C=C2/SC(=S)N(CC(=O)Nc3nnc(C)s3)C2=O)c1	?
41	-2	.	2%	COc1cccc(C(=O)OCCN(C)C(C)(C)C)c1	.
42	-5	?	0%	C=C(C)CNC(=S)NNC(=O)c1ccncc1	14%
43	.	5.4%	-6%	Cc1ccc2c(CN(C)Cc3ccc(Cl)cc3)cc(=O)oc2c1	-7%
44	4	0.6%	1%	CCOC(=O)CCC(NC(=O)CC(=O)NC(CCC(=O)OCC)C(=O)OCC)C(=O)OCC (stereo not drawn)	-6%
45	11	0.9%	-1%	Cc1ccc(N(CC(=O)Nc2c(C)n(C)n(-c3ccccc3)c2=O)S(C)(=O)=O)c(C)c1	9%
46	-16	2.7%	-6%	NNS(=O)(=O)c1ccc(N2CCCC2=O)c([N+](=O)[O-])c1	28%
47	.	-0.1%	-1%	CCOc1ccc(CCNC(=O)CCNS(=O)(=O)c2ccc(Br)cc2)cc1OCC	-3%
48	-3	-1.0%	-29%	N#Cc1ccccc1CSc1nnc(Cc2ccccc2)o1	-24%
49	.	-0.3%	.	CN(CC(=O)Nc1ccccc1Cl)C(=O)c1ccccc1Sc1ccccc1C#N	1%
50	-15&4	?	.	NCCC(=O)NCCc1cnc[nH]1	8%
51	3	?	-15%	Clc1ccc(-c2nnc(-c3ccccc3)nc2N2CCSCC2)cc1	10%
52	.	?	.	COC(=O)N[C@@H]1C[C@H]2[C@@H]3CC[C@H]4C[C@@H](OC)CC[C@]4(C)[C@H]3CC[C@@]12C	-18%
53	.	-4.7%	5%	Clc1ccc(CN2CCN(c3ncccn3)CC2)cc1Cl	-2%
54	.	0.5%	-64%	CCC(=O)Nc1ccc(-c2ccc(N3CCCCC3)nn2)cc1	0%
55	?	?	-9%	CCOC(=O)c1cc(C(=O)OCC)c2ccccn2c1=O	?
56	8	-4.7%	-9%	Nc1cc(=O)[nH]c(SCC(=O)N2CCc3ccccc3C2)n1	4%
57	4	-0.2%	6%	CCc1cc(CNC(=O)CC2C(=O)NCCN2Cc2c(F)cccc2Cl)on1 (stereo not drawn)	5%
58	4	-0.1%	-1%	CS(=O)(=O)N(CC(=O)NCc1ccncc1)c1cc(Cl)ccc1Cl	3%
59	7	2.7%	-16%	COc1ccc(C2C(C(C)=O)=C(O)C(=O)N2c2nccs2)cc1 (stereo not drawn)	-3%
60	.	1.7%	.	O=C(Cn1cnc2c(OCc3ccccc3)ncnc21)N[C@H](CO)Cc1cc2ccccc2[nH]1	-2%

no.	GLA inh pH 4.5	Rango-impB inh	miR-21 FLuc	compound	Rango release inh
61	-3	-5.5%	-2%	CC(C)C(OC(=O)c1cccc(S(=O)(=O)NCC(F)(F)F)c1)C(=O)NC(N)=O (stereo not drawn)	?
62	.	-1.2%	.	COc1ccc(S(=O)(=O)NC(C(=O)OCC(=O)Nc2ccc(N3CCOCC3)cc2)C(C)C)cc1 (stereo not drawn)	-7%
63	.	-3.7%	-2%	O=C(NC(=S)NC1CCS(=O)(=O)C1)c1ccccc1 (stereo not drawn)	7%
64	-13	7.9%	-26%	N#C/C(=C1\CCCN1)c1nc(-c2ccccc2)cs1	1%
65	-9	-2.2%	-2%	O=C(OC(C(=O)Nc1ccc(Cl)c(C(F)(F)F)c1)c1ccccc1)C1=COCCO1 (stereo not drawn)	-1%
66	.	0.9%	-4%	CCc1nc2cccnc2n1-c1ccc(CC(=O)O)cc1	-13%
67	3	-0.3%	-4%	Cc1ccc(C(=O)NCC(=O)OCC(=O)Nc2ccccc2[N+](=O)[O-])cc1	8%
68	.	2.0%	.	COc1cc(N)c2ncccc2c1Br	?
69	.	-0.3%	.	Cn1nc(C(=O)NC2CCCC2)c2ccccc2c1=O	-8%
70	-4	0.1%	-9%	CC(=O)NCCOc1cccc2ccccc12	-8%
71	-1	2.0%	-7%	COc1ccc(C2=NN(C(=O)c3cccc([N+](=O)[O-])c3)C(c3cccc([N+](=O)[O-])c3)C2)cc1 (stereo not drawn)	24%
72	2	0.3%	1%	CCn1c(SCC(=O)NCC2CCCO2)nnc1-c1ccc(S(=O)(=O)N2CCN(C)CC2)cc1 (stereo not drawn)	12%
73	6	?	4%	CC(=O)Nc1sc(/C(C#N)=C/c2ccc(Cl)c(Cl)c2)nc1-c1ccc(C)cc1	?
74	1	0.1%	0%	CN(C)Cc1nnnn1-c1ccccc1	-3%
75	-2	5.8%	-7%	CN1C(=O)CC(C(=O)O)SC1=Nc1ccc(F)cc1 (stereo not drawn)	7%
76	2	0.4%	8%	Cc1cc(NC(=O)CSc2nc3ccccc3c(=O)n2CCCC(=O)NCc2ccccc2)n[nH]1	0%
77	.	1.3%	-1%	Cc1ccc(OCC(=O)N(Cc2cccc(Cl)c2)C2CCS(=O)(=O)C2)cc1C (stereo not drawn)	-5%
78	.	2.4%	2%	Cc1ccc(C)c(N2CCN(C(=O)CCC(=O)Nc3nnc(CC(C)C)s3)CC2)c1	9%
79	.	-3.9%	.	O=C(N/N=C/c1cccc(O)c1)c1ccc(-n2cnnn2)cc1	-2%
80	.	-0.2%	1%	CC(C)n1cc(CN2CCC(C(=O)Nc3cccc(-c4cscn4)c3)CC2)cn1	-1%
81	.	-0.3%	19%&24%	Cc1ccc2c(c1)N(S(=O)(=O)c1cc(-c3onc(C)c3C)ccc1C)CCO2	?
82	.	0.0%	.	Cc1nnc(SCC(=O)c2c(N)n(C3CC3)c(=O)[nH]c2=O)n1C	-10%
83	.	-2.3%	-2%	CCOC(=O)c1cc(S(=O)(=O)NC2CCC(C)CC2)cn1C (stereo not drawn)	-5%
84	.	?	-3%	O=S(=O)(NCc1ccco1)c1ccc(Cl)cc1Cl	5%
85	-5	-0.2%	0%	C=CCNc1nc(N(c2ccccc2)c2ccccc2)nc(-n2ccnc2)n1	9%
86	.	-2.2%	1%	COc1cc(OC)c(NC(=O)Cn2cnc3sc(C)c(S(=O)(=O)N4CCOCC4)c3c2=O)cc1Cl	-11%

Seven entries out of the list above, arranged by their value in Rango release inh, smallest number first:
no.	GLA inh pH 4.5	Rango-impB inh	miR-21 FLuc	compound	Rango release inh
86	.	-2.2%	1%	COc1cc(OC)c(NC(=O)Cn2cnc3sc(C)c(S(=O)(=O)N4CCOCC4)c3c2=O)cc1Cl	-11%
69	.	-0.3%	.	Cn1nc(C(=O)NC2CCCC2)c2ccccc2c1=O	-8%
74	1	0.1%	0%	CN(C)Cc1nnnn1-c1ccccc1	-3%
79	.	-3.9%	.	O=C(N/N=C/c1cccc(O)c1)c1ccc(-n2cnnn2)cc1	-2%
65	-9	-2.2%	-2%	O=C(OC(C(=O)Nc1ccc(Cl)c(C(F)(F)F)c1)c1ccccc1)C1=COCCO1 (stereo not drawn)	-1%
64	-13	7.9%	-26%	N#C/C(=C1\CCCN1)c1nc(-c2ccccc2)cs1	1%
63	.	-3.7%	-2%	O=C(NC(=S)NC1CCS(=O)(=O)C1)c1ccccc1 (stereo not drawn)	7%

Bioassay records: PubChem BioAssay, National Center for Advancing Translational Sciences (NCATS)
